From PubChem BioAssay
Ecoli rRNA inh – reduced GFP signal of wild-type E. coli, primary screen, bacterial rRNA inhibitor project, GFP/RFP fluorescence, OD600, single point. AID 720706, 2013. 1.6% of 350,000 active. GFP signal change (wild-type ribosome), % (test concentration not listed). E. coli WT GFP vs humanized-ribosome RFP mutants, 24 h; stronger effect = lower value; DMSO median 0, no signal -100;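 active = significant combined selectivity score with lowered wild-type GFP, culture density cut under 30%, mutant RFP and density less affected; inactive = any of these conditions unmet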; note: one replicate is shown; some compounds called inactive have numbers as strong as hits
FGF22 binding – binders of human FGF22 protein, primary screen, FGF22 synaptogenesis inhibitor project, biophysical, thermal shift, single point. Fibroblast growth factor 22 (Homo sapiens), Q9HCT0. recombinant FGF22 thermal shift, SYPRO orange fluorescence; percent of sucrose octasulfate shift, DMSO zero. calls only at 9.99 µM. 1.5% of 340,000 active. AID 651658, 2012;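 active = melting point raised past a set limit in the mean and every replicate; three in four hits are not shown here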
Target sequence (Q9HCT0 whole entry, looked up): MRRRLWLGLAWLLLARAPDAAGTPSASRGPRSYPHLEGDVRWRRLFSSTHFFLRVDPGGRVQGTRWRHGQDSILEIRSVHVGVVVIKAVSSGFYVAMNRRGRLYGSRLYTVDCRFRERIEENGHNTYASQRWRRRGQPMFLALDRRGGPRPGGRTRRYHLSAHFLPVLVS
Ecoli rRNA inh OD600 – recorded beside Ecoli rRNA inh, whose call it bears; OD600 change, %; measured here: OD600 growth;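 optical density of the mix in the first replicate; 0 = DMSO median and -100 = no signal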
Ecoli rRNA inh RFP – further read-out of Ecoli rRNA inh, marked with its call; RFP signal change, %; measured here: RFP humanized mutant strains;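 first replicate; 0 = DMSO median and -100 = no signal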
* marks the source's active call; other numbers are inactive results; i = inactive.

SMILES | Ecoli rRNA inh | Ecoli rRNA inh OD600 | Ecoli rRNA inh RFP | FGF22 binding
O=C(C[C@H]1CC[C@H]2[C@@H](COC[C@@H](O)CN2Cc2ccc(Cl)cc2)O1)NCc1ccccc1Cl | -45.5 | -73.4 | -7.5 | i
CN(C)c1ccc2c(c1)[C@H]1C[C@H](CC(=O)NCc3ccccn3)O[C@H](CO)[C@H]1O2 | 4.3 | 7.4 | 2.3 | i
CC(C)NC(=O)N(C)C[C@H]1Oc2cc(-c3ccncc3)ccc2S(=O)(=O)N([C@H](C)CO)C[C@@H]1C | 6.2 | 7.3 | -1.0 | i
CCC(=O)N1CCCCN2[C@H](CO)[C@@H](c3ccc(-c4ccc(F)cc4)cc3)[C@@H]2C1 | 4.2 | -13.1 | 3.3 | i
O=C(C[C@H]1C=C[C@@H](NC(=O)Nc2ccccc2F)[C@H](CO)O1)NCc1ccc(Cl)cc1 | 1.4 | 2.2 | -1.2 | i
CN1C(=O)c2cc(NC(=O)Cc3ccccc3)ccc2OC[C@@H]2O[C@@H](CC(=O)O)CC[C@H]21 | 3.1 | -5.2 | -1.1 | i
Cc1cc(C(=O)Nc2cccc3c2O[C@@H](CN(C)Cc2ccncc2)[C@@H](C)CN([C@H](C)CO)C3=O)n(C)n1 | 3.6 | 1.3 | 2.2 | i
COc1ccc(CN(C)C[C@@H]2OCCCC[C@H](C)Oc3ccc(NC(=O)c4ccncc4)cc3C(=O)N([C@@H](C)CO)C[C@H]2C)cc1 | 0.7 | 2.1 | -1.1 | i
C[C@@H]1CN([C@H](C)CO)C(=O)c2cccc(NS(=O)(=O)c3cccs3)c2O[C@H]1CN(C)CC1CCCCC1 | -2.2 | -2.6 | -0.1 | i
CO[C@H]1CN(C)C(=O)c2ccc(NC(=O)Nc3c(C)noc3C)cc2OC[C@@H](C)N(CC2CC2)C[C@H]1C | 2.5 | 6.4 | 0.3 | i
C[C@@H]1CN([C@@H](C)CO)C(=O)c2cccc(NC(=O)Nc3ccc(C(F)(F)F)cc3)c2O[C@@H]1CN(C)C(=O)Nc1ccc2c(c1)OCO2 | 1.8 | 1.7 | 1.4 | i
C[C@@H]1CN([C@@H](C)CO)C(=O)c2cc(NC(=O)CCN3CCOCC3)ccc2O[C@@H]1CN(C)Cc1ccncc1 | 1.4 | 1.4 | -1.2 | i
CC(C)CC#Cc1ccc2c(c1)O[C@H](CN(C)C(=O)C1CCCCC1)[C@H](C)CN([C@@H](C)CO)S2(=O)=O | -3.4 | -3.7 | 1.0 | i
Cc1ccccc1S(=O)(=O)N1C[C@@H](O)COC[C@@H]2O[C@H](CC(=O)N3CCC(Cc4ccccc4)CC3)CC[C@H]21 | -37.1 | -66.0 | -1.1 | i
C[C@@H]1CN([C@@H](C)CO)S(=O)(=O)c2ccc(C3=CCCC3)cc2O[C@@H]1CN(C)Cc1cncnc1 | 2.6 | 3.8 | -0.7 | i

Single records, as listed above.
Record of CN1C(=O)c2cc(NC(=O)Cc3ccccc3)ccc2OC[C@@H]2O[C@@H](CC(=O)O)CC[C@H]21 : Ecoli rRNA inh: 3.1; Ecoli rRNA inh OD600: -5.2; Ecoli rRNA inh RFP: -1.1; FGF22 binding: i
Record of Cc1cc(C(=O)Nc2cccc3c2O[C@@H](CN(C)Cc2ccncc2)[C@@H](C)CN([C@H](C)CO)C3=O)n(C)n1 : Ecoli rRNA inh: 3.6; Ecoli rRNA inh OD600: 1.3; Ecoli rRNA inh RFP: 2.2; FGF22 binding: i
Record of O=C(C[C@H]1CC[C@H]2[C@@H](COC[C@@H](O)CN2Cc2ccc(Cl)cc2)O1)NCc1ccccc1Cl : Ecoli rRNA inh: -45.5; Ecoli rRNA inh OD600: -73.4; Ecoli rRNA inh RFP: -7.5; FGF22 binding: i

Remaining list, next part.
SMILES | Ecoli rRNA inh | Ecoli rRNA inh OD600 | Ecoli rRNA inh RFP | FGF22 binding
C[C@@H]1CN([C@@H](C)CO)C(=O)c2cc(NC(=O)Nc3cccc4ccccc34)ccc2O[C@@H]1CN(C)Cc1ccc2c(c1)OCO2 | -13.3 | -35.5 | 20.5 | i
C[C@@H]1CCCCO[C@@H](CN(C)CC2CCCCC2)[C@H](C)CN([C@H](C)CO)C(=O)c2cc(NC(=O)C3CCCCC3)ccc2O1 | 3.8 | 2.1 | 1.3 | i
O=C(c1cccc(F)c1)N1CCCCN2[C@H](C1)[C@@H](c1ccc(-c3cncnc3)cc1)[C@@H]2CO | -0.1 | -0.4 | -0.3 | i
O=C(O)C[C@@H]1CC[C@H](NC(=O)c2ccccc2F)[C@@H](CO)O1 | 4.6 | 6.1 | -0.6 | i
CN1C(=O)c2cc(NC(=O)c3cccc(F)c3)ccc2OC[C@H]2O[C@@H](CC(=O)N3CCc4ccccc4C3)CC[C@@H]21 | -26.2* | -16.9* | -0.2* | i
COc1ccc(NC(=O)N(C)C[C@@H]2OCCCC[C@H](C)Oc3ccc(NC(=O)CCC(F)(F)F)cc3C(=O)N([C@H](C)CO)C[C@H]2C)cc1 | -3.6 | -5.3 | -4.8 | i
Cc1ccc(S(=O)(=O)Nc2ccc3c(c2)C(=O)N([C@@H](C)CO)C[C@H](C)[C@H](CN(C)S(=O)(=O)c2c(C)noc2C)O3)cc1 | -1.0 | 1.6 | 2.6 | i
COC(=O)[C@H]1[C@H](CO)[C@H]2Cn3c(ccc(-c4cccc(F)c4)c3=O)[C@H]2N1Cc1ccccn1 | -0.1 | 11.9 | 0.9 | i
CO[C@@H]1CN(C)C(=O)c2cc(NC(=O)c3nc4ccccc4s3)ccc2OC[C@H](C)N(Cc2ccncc2)C[C@@H]1C | -17.4 | -16.6 | 29.6 | i
CCC(=O)N(C)C[C@H]1Oc2cc(C#CCN(C)C)ccc2S(=O)(=O)N([C@@H](C)CO)C[C@H]1C | 7.7 | 13.5 | -3.5 | i
CO[C@@H]1CN(C)C(=O)c2ccc(NC(=O)C3CCCC3)cc2OC[C@H](C)N(C(C)=O)C[C@H]1C | 1.8 | 0.6 | -0.9 | i
CN(C)C(=O)C[C@H]1CC[C@@H]2[C@H](COC[C@@H](O)CN2Cc2ccc(C(F)(F)F)cc2)O1 | -2.2 | 0.8 | -1.9 | i
C[C@@H]1CN([C@@H](C)CO)C(=O)c2cc(C#CCC3CCCC3)cnc2O[C@H]1CN(C)C(=O)CC1CC1 | -1.3 | -5.2 | 5.5 | i
COc1ccc(S(=O)(=O)N(C)C[C@@H]2Oc3ccc(NC(=O)c4ccncc4)cc3C(=O)N([C@@H](C)CO)C[C@H]2C)cc1 | 0.5 | -2.1 | 1.4 | i
C[C@H]1CN([C@@H](C)CO)S(=O)(=O)c2ccc(C#Cc3ccccc3)cc2O[C@@H]1CN(C)C(=O)Cc1ccccn1 | -17.7 | -36.0 | 9.6 | i
O=C(C[C@@H]1C=C[C@@H](NC(=O)Nc2cc(F)ccc2F)[C@H](CO)O1)NCc1ccncn1 | 1.0 | -5.1 | -1.3 | i
COc1cccc(C#Cc2ccc([C@@H]3[C@@H](C#N)N(C(=O)C4CCC4)[C@H]3CO)cc2)c1 | 0.6 | -1.1 | -0.2 | i
O=C(C[C@H]1C[C@@H]2c3cc(NC(=O)CC4CC4)ccc3O[C@@H]2[C@H](CO)O1)NCc1cccc(F)c1 | -1.2 | -2.1 | -2.3 | i
O=C([C@H]1[C@H](CO)[C@H]2Cn3c(cccc3=O)[C@H]2N1CC1CC1)N1CCc2ccccc2C1 | -2.9 | -6.7 | 0.5 | i
C[C@@H]1CN([C@H](C)CO)C(=O)c2cccc(NC(=O)CCCCCC(=O)Nc3ccccc3N)c2O[C@H]1CN(C)Cc1ccc(C(F)(F)F)cc1 | -9.8 | -14.4 | -1.0 | i
C[C@H](CO)N1C[C@H](C)[C@@H](CN(C)C(=O)Nc2cccc3ccccc23)Oc2c(NC(=O)Nc3ccc4c(c3)OCO4)cccc2C1=O | 0.5 | -2.4 | 0.0 | i
CC(C)NC(=O)N(C)C[C@@H]1Oc2c(NC(=O)c3cnccn3)cccc2C(=O)N([C@@H](C)CO)C[C@@H]1C | 2.5 | 12.5 | 1.7 | i
C[C@H](CO)N1C[C@H](C)[C@H](CN(C)C(=O)Nc2ccccc2C(F)(F)F)OCc2cnnn2CCCC1=O | -2.9 | -3.5 | -3.6 | i
O=C(Nc1ccccc1)N1CCCCN2[C@H](CO)[C@@H](c3ccc(C#CC4CC4)cc3)[C@H]2C1 | 0.2 | 7.7 | 9.9 | i
C[C@@H]1CN([C@@H](C)CO)C(=O)c2cc(NC(=O)Nc3ccc(C(F)(F)F)cc3)ccc2O[C@@H](C)CCCCO[C@@H]1CN(C)C(=O)NC1CCCCC1 | -0.4 | 4.7 | -1.7 | i
C[C@H]1CN([C@@H](C)CO)C(=O)c2cccc(NC(=O)Nc3ccc4c(c3)OCO4)c2O[C@@H]1CN(C)S(=O)(=O)c1ccccc1 | -0.6 | -4.8 | -2.6 | i
C[C@@H]1CCCCO[C@H](CN(C)C)[C@H](C)CN([C@H](C)CO)C(=O)c2cc(NC(=O)c3ccncc3)ccc2O1 | 4.0 | 18.4 | -3.7 | i
CN(C)CC(=O)N[C@H]1C=C[C@@H](CC(=O)NCCN2CCCCC2)O[C@@H]1CO | 4.8 | 14.4 | -1.6 | i
C[C@H]1CN([C@@H](C)CO)C(=O)c2cc(C#CC(C)(C)O)cnc2O[C@H]1CN(C)Cc1ccccn1 | 2.3 | 3.4 | -4.2 | i
CC(=O)N(C)C[C@@H]1[C@@H](c2ccc(-c3ccccc3F)cc2)[C@H](CO)N1C(C)=O | -2.5 | -3.5 | 1.2 | i
C[C@@H]1CCCCO[C@H](CN(C)S(=O)(=O)c2ccc(Cl)cc2)[C@@H](C)CN([C@H](C)CO)C(=O)c2cc(NS(=O)(=O)c3ccc(F)cc3)ccc2O1 | -1.1 | 4.7 | 1.3 | i
O=C(Cc1ccccn1)N[C@@H]1CC[C@@H](CCn2cc(-c3ccccc3)nn2)O[C@@H]1CO | 2.5 | 15.2 | -1.9 | i
CO[C@@H]1CN(C)C(=O)c2ccc(NC(=O)C3CC3)cc2OC[C@H](C)N(Cc2ccccc2)C[C@H]1C | -7.2 | -10.8 | 1.7 | i
CCCNC(=O)Nc1ccc2c(c1)OC[C@@H](C)N(Cc1cccnc1)C[C@@H](C)[C@H](OC)CN(C)C2=O | 0.9 | 1.6 | 0.2 | i
CCCC#Cc1ccc2c(c1)O[C@H](CN(C)Cc1ccccn1)[C@H](C)CN([C@H](C)CO)S2(=O)=O | -20.6 | -40.7 | 7.5 | i
CCCNC(=O)N1CC2(C1)[C@H](c1ccccc1)[C@@H](CO)N2Cc1ccc(F)cc1 | 4.4 | -3.5 | -0.4 | i
C[C@H]1CCCCO[C@@H](CN(C)C(=O)c2ccncc2)[C@@H](C)CN([C@@H](C)CO)C(=O)c2cc(NC(=O)C3CCCCC3)ccc2O1 | 1.2 | 10.0 | 1.8 | i
C/C=C/c1ccc2c(c1)O[C@@H](CN(C)Cc1cccnc1)[C@@H](C)CN([C@@H](C)CO)S2(=O)=O | -2.6 | 0.4 | -0.1 | i
Cc1noc(C)c1S(=O)(=O)Nc1ccc2c(c1)C(=O)N([C@H](C)CO)C[C@@H](C)[C@@H](CN(C)C(=O)Nc1ccc3c(c1)OCO3)OCCCC[C@@H](C)O2 | 1.8 | 0.0 | 2.2 | i
CC(=O)N1[C@@H]2Cn3c(ccc(C4=CCCC4)c3=O)[C@H]1[C@@H](C(=O)NC1CCCCC1)[C@@H]2CO | -2.9 | -5.0 | -1.6 | i
COc1ccc2c3c(n(C)c2c1)[C@H](CO)N(Cc1ccccc1)CC31CN(C(=O)Nc2cccc(F)c2)C1 | -1.2 | 11.9 | -1.9 | i
CC(=O)N[C@H]1CC[C@@H](CCNC(=O)Nc2ccc(C(F)(F)F)cc2)O[C@H]1CO | -60.0 | -74.2 | -25.4 | i
O=C(Nc1cc(F)ccc1F)N[C@H]1CC[C@@H](CC(=O)N2CCc3ccccc3C2)O[C@@H]1CO | -4.5 | -14.3 | -0.1 | i
C[C@@H]1CN([C@H](C)CO)S(=O)(=O)c2ccc(C3=CCCCC3)cc2O[C@@H]1CN(C)C(=O)c1ccc(F)cc1 | -1.7 | -13.6 | 11.4 | i
COC(=O)[C@]12C[C@H](CC(=O)N3CCC(c4ccccc4)CC3)C(=O)N(Cc3ccccc3)C1=C[C@H](C1CCCC1)O[C@@H]2C | 3.3 | 3.4 | 0.6 | i
CCCNC(=O)N1[C@@H]2CN(C(=O)c3cccnc3)c3ccccc3[C@@H]2[C@@H]1CO | 6.0 | 3.3 | -4.2 | i
C[C@@H]1CN([C@@H](C)CO)C(=O)c2cccc(NC(=O)c3nc4ccccc4s3)c2O[C@H]1CN(C)Cc1ccc2c(c1)OCO2 | -2.1 | 5.2 | 0.5 | i
C[C@@H]1CN([C@H](C)CO)C(=O)c2cccc(NC(=O)Nc3ccccc3)c2O[C@H]1CN(C)C(=O)Nc1ccccc1 | -5.9 | -0.2 | 0.3 | i
C[C@H]1CN([C@@H](C)CO)C(=O)c2cc(-c3cccc(F)c3)cnc2O[C@H]1CN(C)C(=O)C1CCCCC1 | 0.7 | 17.3 | 3.5 | i
C[C@@H]1CN([C@@H](C)CO)S(=O)(=O)c2ccc(C#CCN(C)C)cc2O[C@H]1CN(C)Cc1ccccc1 | -5.4 | -10.0 | -0.1 | i

This is a subset. The share of hits here may be higher or lower than overall.
